RecA intein inh: inhibitors of M. tuberculosis RecA intein splicing. P9WHJ3. cell-free RecA intein splicing, fluorescence. inhibition, %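 (about 9 µM by stock and volumes)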. 290,000 tested, 0.75% active; in the data active = inhibition above about 30%; inconclusive = no clear call, values can overlap the other calls;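 also: 0% = vehicle wells and 100% = reference inhibitor control wells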
Target sequence (P9WHJ3 whole entry, looked up): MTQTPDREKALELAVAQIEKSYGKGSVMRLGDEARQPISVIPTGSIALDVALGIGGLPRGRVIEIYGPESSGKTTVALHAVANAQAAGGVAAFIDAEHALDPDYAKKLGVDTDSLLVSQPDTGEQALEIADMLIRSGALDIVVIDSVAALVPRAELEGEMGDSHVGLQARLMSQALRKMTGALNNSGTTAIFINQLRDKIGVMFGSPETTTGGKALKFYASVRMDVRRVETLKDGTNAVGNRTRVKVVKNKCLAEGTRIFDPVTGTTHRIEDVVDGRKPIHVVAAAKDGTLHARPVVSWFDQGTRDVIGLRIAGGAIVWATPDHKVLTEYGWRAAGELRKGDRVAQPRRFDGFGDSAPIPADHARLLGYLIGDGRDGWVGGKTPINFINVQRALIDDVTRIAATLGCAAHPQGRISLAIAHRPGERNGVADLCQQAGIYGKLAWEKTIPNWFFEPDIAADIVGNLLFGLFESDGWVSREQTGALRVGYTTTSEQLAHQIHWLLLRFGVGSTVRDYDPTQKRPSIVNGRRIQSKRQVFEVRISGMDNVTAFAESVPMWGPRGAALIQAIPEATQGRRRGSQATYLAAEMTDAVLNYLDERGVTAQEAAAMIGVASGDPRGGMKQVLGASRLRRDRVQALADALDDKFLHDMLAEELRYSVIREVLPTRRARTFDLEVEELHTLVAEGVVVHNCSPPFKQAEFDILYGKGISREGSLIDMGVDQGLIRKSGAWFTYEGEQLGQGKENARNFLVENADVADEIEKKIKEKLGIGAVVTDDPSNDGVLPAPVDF
Mtb betalactam: beta-lactam sensitization of Mtb H37Rv; M. tuberculosis H37Rv growth with meropenem, percent inhibition; hits of this screen are not shown here; inhibition, % at 25 µM; 330,000 tested, 0.27% active; AID 434955;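 active = about 74% or more and at least 40 points above the plate without the antibiotic, then above 30% in a dose series; inconclusive = first-round hits that could not be retested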;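 also: growth measured after seven days incubation then overnight dye step; 0% = bacteria only wells and 100% = bacteria with antibiotic; twin plates without the antibiotic show which effects depend on it; some results filed as inactive read as strong as hits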
YopH inh: blocks Yersinia enterocolitica YopH tyrosine phosphatase | fluorescence Ex485/Em525 | inhibition, %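 (about 10 µM by stock and volumes)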 | 140,000 tested, 0.16% active | AID 898;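 active = inhibition of 50% or more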;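 also: controls were vehicle for no effect and minimum signal wells for full effect; inactives centre near -20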
Arbovirus anti: antivirals against arbovirus infection. arbovirus infection cell-based antiviral screen. inhibition, % at 10 µM. 200,000 tested, 0.37% active. AID 1251;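 active = inhibition from about 30%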;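 also: bluetongue infection of BSR cells; cell survival read as ATP light after 72 h; 0% = infected wells without compound and 100% = uninfected wells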
Mtb growth: M. tuberculosis H37Rv growth inhibitors, H37Rv strain (AID 1626); M. tuberculosis H37Rv growth inhibition; higher % means a stronger effect; inhibition, % at 10 µM, or IC50 in µM where a hit was titrated; 220,000 tested, 0.95% active;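 active = confirmed in a dose series; inconclusive = inhibition above 80% but not taken into the dose series; inactive = below 80% or under 30% at every dose of the series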;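 also: bacteria incubated seven days before Alamar blue readout; 0% = bacteria only wells and 100% = bacteria with antibiotic wells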
Arbovirus anti repeat: second read-out of Arbovirus anti, no call of its own (marks repeat the call); inhibition, %; measured here: 10K subset replicate screen; many hits read low in the repeat;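 first of two repeat runs on a subset; 0% = infected and 100% = uninfected wells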
Starred values were filed as active, the others as inactive; ? = inconclusive; nt = not tested or not shown; & = joins results of further samples. Only part of the results is shown, so the mix of outcomes need not match the whole.

SMILES | RecA intein inh | Mtb betalactam | YopH inh | Arbovirus anti | Mtb growth | others
O=C(NCc1ccccn1)C(=O)NCC1OCCN1S(=O)(=O)c1ccc(Cl)cc1 (stereo unspecified) | 1.7 | -6 | nt | nt | nt
O=C(Nc1ccnn1C1CCN(C/C=C/c2ccc(F)cc2)CC1)C1CCCC1 | 0.5 | 1 | nt | nt | nt
COc1cc(/C=N/NC(=O)c2ccncc2)ccc1OC(=O)c1cc(OC)c(OC)c(OC)c1 | -1.4 | 98 | nt | nt | nt
Cc1ccc(S(=O)(=O)C(C#N)c2nc3ccccc3nc2N2CCCC2)cc1 (stereo unspecified) | -9.9 | 1 | 15 | -6 | -2%
C=CCn1c(COc2ccccc2F)nnc1SCC(=O)N1CC(=O)Nc2ccccc21 | -2.4 | -3 | -36 | 0 | -3%
O=C(Cc1c(F)cccc1Cl)Nc1ccccc1C(=O)N1CCCCC1 | -2.4 | 6 | nt | nt | nt
CCOC(=O)C1=NNC2(c3ccc(C)cc3)C(=O)N(c3ccc(Cl)cc3)C(=O)C12 (stereo unspecified) | 2.9 | -1 | -18 | 1 | 14%
Cc1cn(-c2cc(C(=O)Nc3ccc(C)c(NC(=O)C(=O)c4c[nH]c5ccccc45)c3)cc(C(F)(F)F)c2)cn1 | -0.8 | 82 | nt | nt | 21%
COc1ccc(C[C@H]2c3cc(O)c(OC)cc3CC[N+]2(C)[O-])cc1O (stereo partly specified) | -9.9 | -14 | nt | nt | -3%
CCCc1cc(C(=O)NCCc2ccc(OC)c(OC)c2)no1 | 0.4 | -1 | -27 | 1 | 4% | Arbovirus anti repeat=0
O=C(COC(=O)Cc1cn2ccsc2n1)Nc1nc2ccccc2s1 | -0.2 | 0 | 5 | 1 | -12%
COc1ccc(-n2c(=S)[nH]c3cc(C(=O)O)ccc3c2=O)cc1 | 3.4 | 0 | nt | 5 | -3%
CC(=O)N(C)c1ccc(N=Nc2c(C)[nH]n(C(N)=S)c2=O)cc1 | 2.7 | -5 | nt | 1 | 6%
COc1ccc(OCC(=O)Nc2ccc3c(c2)nc(CCNC(C)=O)n3C)cc1 | 1.9 | -4 | nt | nt | nt
CC1CN(CC(=O)NCc2ccccc2)CC(C)O1 (stereo unspecified) | 1.8 | 6 | nt | nt | nt
CCOc1ccc(C(=O)C(C)OC(=O)c2cnc(C)cn2)cc1 (stereo unspecified) | -2.9 | -4 | nt | nt | nt
O=C(c1cc2nc(-c3ccco3)cc(C(F)(F)F)n2n1)N1CCCc2ccccc21 | 2.2 | 0 | -7 | 1 | -8%
CN(C)C(CNC(=O)CSc1nnc(-c2ccco2)o1)c1ccccc1 (stereo unspecified) | -1.0 | -10 | -36 | 8 | -14%
CS(=O)(=O)Nc1ccc(C2=NN(C(=O)c3cccc(F)c3)C(c3cccs3)C2)cc1 (stereo unspecified) | 3.9 | 9 | nt | nt | nt
Cc1ccc(S(=O)(=O)N2CCC(=O)CC2)cc1 | 1.0 | 10 | nt | nt | nt
CC(NC(=O)Nc1ccc2c(c1)OCO2)C1CCCO1 (stereo unspecified) | 1.0 | -18 | 6 | -3 | 4%
C(=N\Nc1cc(N2CCCCC2)ncn1)/c1ccco1 | -0.1 | 4 | nt | nt | nt
Cc1ncc(CSc2nc3ccccc3[nH]2)c(N)n1 | -1.4 | 3 | 0 | 2 | -4%
Cc1ccc(-c2nnc(CSc3nnc(COc4ccccc4)n3-c3ccccc3)o2)cc1 | 14 | 2 | -27 | -32 | -8%
CCN1CCN(CCCCOc2ccccc2F)CC1 | -0.7 | -3 | -9 | -4 | -7%
CCOC(=O)C1=C(N)OC2=C(C(=O)CCC2)C12C(=O)N(C)c1ccccc12 (stereo unspecified) | 0.4 | -4 | nt | nt | -14%
CCCn1nc(NC(=O)c2cccs2)c2cc3cc(C)ccc3nc21 | -13 | 19 | nt | nt | nt
CCCCNC(=O)C1CCC(CNS(=O)(=O)c2c(C)cc(C)cc2C)CC1 (stereo unspecified) | 1.6 | -2 | nt | nt | nt
N#C/C(=C\c1ccc(C#N)cc1)C(=O)c1ccccc1 | 3.3 | 11 | nt | nt | -2%
CC(=O)N1NC(=Nc2ccccc2)SC1(C)C | 8.0 | -10 | nt | 1 | -6%
NC1=NC[C@H](Cc2ccc(O)cc2)N1CCC12CC3CC(CC(C3)C1)C2 | 8.3 | -3 | nt | nt | 5.9µM*
CCOC(=O)c1ccc(NC(=S)Nc2ccc(C)cc2)cc1 | 3.4 | 31 | nt | 12 | ?
CN(CC(=O)N1CCN(c2ccccc2)CC1)S(=O)(=O)c1cccs1 | -6.2 | -1 | nt | -6 | -6%
CC(C)c1ccc(NC(=O)CSc2nc(=O)n(CCN3CCOCC3)c3c2CCC3)cc1 | 0.2 | -3 | nt | nt | nt
C=CCN1C(=O)/C(=C\c2cccc(OC(=O)c3ccco3)c2)SC1=S | 4.1 | 2 | nt | nt | nt
O=C(N/N=C1\CCSC1)c1cc(Cl)ccc1O | 1.5 | 1 | nt | 0 | 3%
CN(C)c1ccc(NC(=O)c2sc(SCC(=O)Nc3nccs3)nc2N)cc1 | -2.8 | 94 | 0 | 2 | 23%
COc1ccc(S(=O)(=O)N(C)CC(=O)NCCN2CCOCC2)cc1Cl | 0.4 | -13 | nt | nt | nt
CC(O)C(NS(=O)(=O)c1ccc(Cl)cc1)C(=O)OCc1cc([N+](=O)[O-])cc2c1OCOC2 (stereo unspecified) | 1.7 | -2 | nt | 3 | 0%
COc1ccc2cc(CCNC(=O)c3ccco3)c(=O)[nH]c2c1 | -1.2 | -4 | nt | nt | nt
COc1ccc(C(=O)NC2CCN(CC(=O)Nc3c(C)cccc3C)CC2)cc1OC | -2.5 | 4 | nt | nt | nt
CC(=O)c1cccc(N2C(=NC(=O)C3CC3)SC3CS(=O)(=O)CC32)c1 (stereo unspecified) | -0.6 | 0 | nt | nt | nt
O=c1c2ccccc2nc(SCc2cccc(F)c2)n1Cc1ccco1 | -2.1 | 5 | -21 | 4 | -3%
O=C(O)c1c[nH]c2cc(C(F)(F)F)ccc2c1=O | -0.2 | 19 | -1 | 7 | 12%
O=S(=O)(/N=C(/Nc1cc(N2CCOCC2)ncn1)c1ccccc1)c1ccccc1 | 0.2 | -5 | -34 | -13 | 2%
CCOC(=O)C1=C(C)Nc2ccccc2N=C1NC(=O)/C=C/c1ccc(OC)cc1OC | 1.4 | -4 | nt | -2 | 25%
COc1ccccc1N1CCN(C(=O)CCC(=O)Nc2nnc(CC(C)C)s2)CC1 | -3.0 | 6 | nt | nt | nt
CC(C)Sc1nc2ccccc2n1CC(=O)NCc1ccc2c(c1)OCO2 | 1.8 | -2 | -39 | -2 | -2%
CC(=O)N1CCC(=NNC(=O)CSc2cc(C)c(Br)cc2C)CC1 | 3.0 | 0 | -16 | -13 | -3%
Cc1nn(-c2ccc(Cl)cc2)c(N)c1C(O)(CSc1nccn1C)C(F)(F)F (stereo unspecified) | nt | 1 | -26 | 0 | 13%
Cc1cc(F)ccc1S(=O)(=O)N1CCCOC1CNC(=O)C(=O)NC1CC1 (stereo unspecified) | -3.6 | -11 | nt | nt | nt
CCCCn1c(N)c(N(CC)C(=O)Cc2ccc(S(=O)(=O)N3CCOCC3)s2)c(=O)[nH]c1=O | -2.4 | -10 | nt | nt | nt
CCOC(=O)Cn1nc(C)n(-c2ccc(C)cc2)c1=O | -6.0 | 1 | -46 | 2 | -14%
Cc1ccc(S(=O)(=O)N(C)c2ccc(C(=O)Nc3ccccn3)cc2)cc1 | -3.6 | -4 | nt | nt | nt
Cc1cccc2cc(CN(CCN3CCCC3)C(=O)NC3CCCCC3)c(=O)[nH]c12 | -1.7 | -15 | -15 | -2 | -3%
O=C(N/N=C/c1ccccc1C(=O)O)c1ccc(COc2cccc3cccnc23)cc1 | 4.2 | -5 | nt | -1 | -1%
O=C(O)c1cn(-c2ccc(F)cc2)c(=O)c2ccccc12 | 0.4 | -6 | nt | 1 | 3%
CCOC(=O)c1[nH]c2cc(OC)c(OC)cc2c1NC(=O)C(C)N1CCN(Cc2ccccc2)CC1 (stereo unspecified) | -1.2 | -4 | -4 | -18 | -6%
CCC(C)Nc1nc2c(c(=O)n(C)c(=O)n2C)n1Cc1cccc(C)c1 (stereo unspecified) | 3.5 | 2 | -18 | 2 | -2%
COc1ccc(NC(=O)CS(=O)CC(=O)Nc2ccc(NC(C)=O)cc2)cc1 (stereo unspecified) | -1.1 | -8 | nt | nt | nt

Retrieved one by one from the list above:
SMILES | RecA intein inh | Mtb betalactam | YopH inh | Arbovirus anti | Mtb growth | others
COc1ccc(NC(=O)CS(=O)CC(=O)Nc2ccc(NC(C)=O)cc2)cc1 (stereo unspecified) | -1.1 | -8 | nt | nt | nt
O=S(=O)(/N=C(/Nc1cc(N2CCOCC2)ncn1)c1ccccc1)c1ccccc1 | 0.2 | -5 | -34 | -13 | 2%

The listing picks up with the two entries that preceded the break.
SMILES | RecA intein inh | Mtb betalactam | YopH inh | Arbovirus anti | Mtb growth | others
CCC(C)Nc1nc2c(c(=O)n(C)c(=O)n2C)n1Cc1cccc(C)c1 (stereo unspecified) | 3.5 | 2 | -18 | 2 | -2%
COc1ccc(NC(=O)CS(=O)CC(=O)Nc2ccc(NC(C)=O)cc2)cc1 (stereo unspecified) | -1.1 | -8 | nt | nt | nt
Cc1cc(NC(=O)c2cccc(Oc3ccccc3)c2)n[nH]1 | 1.0 | 13 | nt | -13 | 5%
O=C(NCC1CCCCC1)C1CCC(=O)N(CCc2cccc(F)c2)C1 (stereo unspecified) | 2.0 | 1 | nt | nt | nt
COc1ccccc1C(=O)Nc1nc2ccc(S(C)(=O)=O)cc2s1 | -0.1 | 27 | 13 | -1 | 5%
Cc1ccccc1CNS(=O)(=O)c1csc(C(N)=O)c1 | 6.7 | -3 | nt | nt | nt
COc1ccc(-n2c(=O)[nH]cc(C(=O)N3CCc4ccccc43)c2=O)cc1 | 0.2 | 1 | 28 | 5 | -7%
COCCNC(=O)c1onc(CSc2ccccn2)c1C(=O)NCCOC | -0.8 | -7 | nt | nt | -3%
Cc1ccc(C)c(NC(=O)Cc2csc(-c3ccccc3)n2)c1 | -1.7 | 3 | 1 | -4 | 12%
O=C(CN1C(=O)c2ccccc2C1=O)NC1CCCCC1 | 2.4 | 8 | nt | nt | nt
CCCCCCCCCCS(=O)(=O)N/N=C/c1ccc([N+](=O)[O-])cc1 | 6.2 | -4 | -26 | -24 | -4%
CC(C)C[C@H](N)c1nnc(SCC(=O)Nc2ccc(Br)cc2)o1 | 3.1 | 3 | nt | nt | nt
Cc1nc2ccc(NC(=O)COc3ccccc3C)cc2s1 | -2.2 | 18 | nt | 6 | 53%
CCN(CCC(=O)Nc1cc([N+](=O)[O-])ccc1OC)Cc1ccccc1 | -1.8 | 4 | -13 | -8 | -2%
O=C(CCc1ccccc1)N1CCCC1 | -0.9 | -2 | nt | nt | nt
Cc1ccccc1-c1ncc(CN2CCN(C3CCCCC3)C(CCO)C2)cn1 (stereo unspecified) | -0.9 | 0 | nt | -1 | -8%
COc1ccc(CCN/C=C2/CC(=O)NC2=O)cc1OC | 6.8 | 17 | -30 | 3 | -2%
COC(=O)C1=CN(Cc2ccc(C)cc2)C=C(C(=O)OC)C1c1cc(OC)c(OC)c(OC)c1 | -73 | -2 | nt | nt | nt
COc1cccc(NC(=O)c2ccc(N3C(=O)C4CCC(C)CC4C3=O)cc2)c1 (stereo unspecified) | 3.8 | 1 | nt | nt | nt
Cc1cc2ncn(C(=O)c3c(-c4c(Cl)cccc4Cl)noc3C)c2cc1C | -2.0 | -2 | -49 | 7 | -5% | Arbovirus anti repeat=3
O=C(CSc1nc(C2CC2)nc2ccccc12)N1c2ccccc2Sc2ccccc21 | 25 | 1 | -41 | -5 | nt
C=CC(COCc1ccccc1)N(Cc1ccccc1)S(=O)(=O)c1ccccc1Br (stereo unspecified) | 2.1 | 3 | nt | nt | -7%
COc1ccc(-c2cc(C#N)nc(N3CCNCC3)n2)cc1 | -2.6 | 1 | -15 | -37 | 4%
O=C(O)CCCCCN=Cc1c(O)c2ccccc2oc1=O | 4.6 | -3 | nt | 12 | -2%
NNC(=O)C1=NOC(CNc2ncc(C(F)(F)F)cc2Cl)C1 (stereo unspecified) | -2.0 | -5 | -1 | -1 | -11%
COc1cc(C(=O)NC2CCCNC2)cc(OC)c1OC (stereo unspecified) | nt | nt | nt | 3 | -8%&3%
Cc1cc(C)cc(NC(=O)CCNS(=O)(=O)c2cc(Br)cnc2N)c1 | -0.3 | -6 | nt | nt | nt
O=C(N/N=C/c1ccccc1Cl)c1cccc(F)c1 | -2.3 | 84 | -41 | -3 | 1%
CCCC(=O)Nc1ccc(C(=O)Nc2nnc(COC)s2)cc1 | 0.2 | ? | -7 | -1 | -1%

From PubChem
